Compound activity from PubChem.
p53 HeLa = nuclear p53 accumulation, HPV+ cells – imaging, p53-positive nuclei imaging, 24 h, 48 h (AID 1508601); p53-positive nuclei imaging, 48 h; hits give high values; some inactives read as strong as hits; p53-positive nuclei, normalised, % at 11 µM unless noted; 1% of 5,700 active;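 active means mean of two plates above 50% at 24 h or at 48 h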;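 further: HPV-positive HeLa cells with a fluorescent p53 stability reporter; 0% = vehicle and 100% = proteasome inhibitor control; doses worked out from stocks diluted about 900-fold with the highest of each compound shown; many of its hits are not listed in these tables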
p53 HeLa cells 24 h = also measured in p53 HeLa; calls as there; nuclei count, normalised, %; measured here: cell number at 24 h;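 100% = vehicle wells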
p53 HeLa p53 24 h = also measured in p53 HeLa; calls as there; p53-positive nuclei, normalised, %; measured here: p53 positive nuclei at 24 h;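 0% = vehicle and 100% = positive control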
p53 HeLa cells 48 h = recorded beside p53 HeLa, whose call it bears; nuclei count, normalised, %; measured here: cell number at 48 h;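 100% = vehicle wells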
An asterisk follows results filed as active; [ ] = remark or other dose. This is a subset; count on the stated rates, not on these rows.

no.	Molecule	p53 HeLa	p53 HeLa cells 24 h	p53 HeLa p53 24 h	p53 HeLa cells 48 h
1	CCC(C)Nc1cc(C(=O)NC2CC3CCC(C2)N3c2ccc(C(=O)C3CC3)cn2)c(C)cc1C(N)=O (stereo unspecified)	0.1[3.7 µM]	53	0.0	44
2	CCOc1ccccc1OC(c1ccccc1)[C@H]1CNCCO1 (stereo partly specified)	0.0[3.7 µM]	109	-0.1	102
3	Cc1cccc(CN2CCN(C(c3ccccc3)c3ccc(Cl)cc3)CC2)c1 (stereo unspecified)	-0.1	111	-0.1	108
4	CS(=O)(=O)c1ccc(C(O)C(CO)NC(=O)C(Cl)Cl)cc1 (stereo unspecified)	-0.2[3.7 µM]	111	-0.3	105
5	CCCCCCCCc1ccc(CCC(N)(CO)CO)cc1	1.1	80	1.8	84
6	CC(C)OC(=O)C(C)N[P@](=O)(OCC1OC(n2ccc(=O)[nH]c2=O)[C@](C)(F)C1O)Oc1ccccc1 (stereo partly specified)	-0.1[3.7 µM]	103	-0.2	99
7	NCCOCCOCCNC(=O)Cc1ccc(Nc2nc(NCc3ccc(F)cc3)nc(NCC3CCCCC3)n2)cc1	0.2	90	-0.1	94
8	O=C(O)C=Cc1cc(Br)c(Br)c(Br)c1Br	0.0	108	0.1	103

(cont.)
no.	Molecule	p53 HeLa	p53 HeLa cells 24 h	p53 HeLa p53 24 h	p53 HeLa cells 48 h
9	CCCCc1nc2cc(C=CC(=O)NO)ccc2n1CCN(CC)CC	85*	51*	80*	28*
10	Cc1ccc(S(=O)(=O)Nc2nc3ccccc3nc2Nc2cccc3nsnc23)cc1	0.0	98	0.2	96
11	OCC(CO)NC1C[C@](O)(CO)C(O)C(O)C1O (stereo partly specified)	-0.1	107	-0.2	110
12	CC(=O)NCCCS(=O)(=O)O	0.2	104	0.0	107
13	Oc1cc(O)cc(C=Cc2ccc(O)c(O)c2)c1	-0.1[3.7 µM]	103	-0.2	98
14	Cc1cc(C)nc(NS(=O)(=O)c2ccc(NC(=S)NC(=O)COc3ccc(Br)cc3Cl)cc2)n1	0.3[3.7 µM]	80	0.3	84
15	CC(CN1c2ccccc2Sc2ccccc21)N(C)C (stereo unspecified)	0.0[3.7 µM]	109	-0.2	100
16	Nc1nonc1C(=Nc1ccc(F)c(Cl)c1)NO	-0.1[3.7 µM]	110	-0.3	106

The list continues.
no.	Molecule	p53 HeLa	p53 HeLa cells 24 h	p53 HeLa p53 24 h	p53 HeLa cells 48 h
17	CC(C)COC(=O)N(C)c1ccc(C(O)(C(F)(F)F)C(F)(F)F)cc1	0.3	97	0.5	105
18	CCC(=O)NCC1CC1c1cccc2c1CCO2 (stereo unspecified)	0.0	107	-0.1	110
19	CCC(C(C)O)n1ncn(-c2ccc(N3CCN(c4ccc(OCC5CO[C@@](Cn6cncn6)(c6ccc(F)cc6F)C5)cc4)CC3)cc2)c1=O (stereo partly specified)	-0.5[3.7 µM]	91	-0.2	91
20	NC(N)=NC(=O)c1nc(Cl)c(N)nc1N	-0.1[3.7 µM]	104	0.0	106
21	COc1c(N2C[C@@H]3CCCN[C@@H]3C2)c(F)cc2c(=O)c(C(=O)O)cn(C3CC3)c12	-0.7[3.7 µM]	105	-0.4	101
22	C=C(C)C(CC=C(C)C)C[C@@]12CC(C=C(C)C)C(C)(C)[C@@](CC=C(C)C)(C(=O)C(=C(O)c3ccc(O)c(O)c3)C1=O)C2=O (stereo partly specified)	-0.7	115	0.1	120
23	C=CCc1ccc(O)c(-c2cc(CC=C)ccc2O)c1	-0.2[3.7 µM]	101	-0.4	100
24	CC[C@@]1(O)C(=O)OCc2c1cc1n(c2=O)Cc2cc3c(N)cccc3nc2-1	32	40	2.0	26

(more compounds)
no.	Molecule	p53 HeLa	p53 HeLa cells 24 h	p53 HeLa p53 24 h	p53 HeLa cells 48 h
25	CCc1cnn2c(NCc3ccc[n+]([O-])c3)cc(N3CCCCC3CCO)nc12 (stereo unspecified)	27	31	2.0	21
26	CCOC(=O)C1=C(C)NC(C)=C(C(=O)OCC)C1c1ccccc1C=CC(=O)OC(C)(C)C	-0.2[3.7 µM]	109	-0.5	107
27	O=C(O)c1ccc(-c2c[nH]c3ncc(-c4ccccc4)cc23)cc1C1CCCC1	2.7	61	0.1	53
28	O=C1OC(C(O)CO)C(O)=C1O (stereo unspecified)	-0.1[3.7 µM]	102	-0.4	101
29	COC1=C2CC(C)CC(OC)C(O)C(C)C=C(C)C(OC(N)=O)C(OC)C=CC=C(C)C(=O)NC(=CC1=O)C2=O (stereo unspecified)	-0.1[3.7 µM]	40	-0.4	28
30	O=C1CC(c2ccc([N+](=O)[O-])cc2)=NN1c1ccccc1	-0.2	117	0.1	106
31	OC(CC1c2ccccc2-c2cncn21)C1CCCCC1 (stereo unspecified)	0.0[3.7 µM]	113	-0.3	109
32	C=CC[N+]1(C2C[C@H]3[C@@H]4CC[C@H]5CC(O)C(N6CCOCC6)C[C@]5(C)[C@@H]4CC[C@]3(C)C2OC(C)=O)CCCC1 (stereo partly specified)	-0.7[3.7 µM]	105	-0.4	103

The list goes on:
no.	Molecule	p53 HeLa	p53 HeLa cells 24 h	p53 HeLa p53 24 h	p53 HeLa cells 48 h
33	O=C(C=Cc1ccc(O)c(O)c1)OC1C[C@](O)(C(=O)O)CC(O)C1O (stereo partly specified)	-0.1	107	-0.1	105
34	Nc1nc2c(ncn2C2OC(CO)C(O)C2O)c(=O)[nH]1 (stereo unspecified)	-0.2[3.7 µM]	112	-0.5	109
35	C=CCC1C=C(C)CC(C)CC(OC)C2O[C@@](O)(C(=O)C(=O)N3CCCC[C@H]3C(=O)OC(C(C)=CC3CCC(O)C(OC)C3)C(C)C(O)CC1=O)C(C)CC2OC (stereo partly specified)	-0.1[3.7 µM]	114	-0.1	106
36	COc1ccc(C2(CNC(=O)c3ccc(NC(=O)c4ccco4)cc3)CCOCC2)cc1	-0.8	115	-0.2	112
37	Nc1nc(SCc2ccc([N+](=O)[O-])cc2)c2ncn(C3OC(CO)C(O)C3O)c2n1 (stereo unspecified)	-0.2	105	-0.2	108
38	CC(C)c1cc2c(N3CCN(C4=NCC(C)(C)S4)CC3)ncnc2s1	0.0	98	-0.2	96
39	CC(C)(C)C(=O)C(Oc1ccc(Cl)cc1)n1ccnc1 (stereo unspecified)	0.0	104	-0.1	105
40	C[C@@]12C(=O)N(c3ccc(C(=O)Nc4cccc5cccnc45)cc3)C(=O)[C@@H]1C1C=CC2C1 (stereo partly specified)	0.0[3.7 µM]	112	-0.2	107

The results go on:
no.	Molecule	p53 HeLa	p53 HeLa cells 24 h	p53 HeLa p53 24 h	p53 HeLa cells 48 h
41	CCC(=C(CC)c1ccc(O)cc1)c1ccc(O)cc1	0.0	99	-0.2	101
42	N=C1CCCN1Cc1[nH]c(=O)[nH]c(=O)c1Cl	-0.3	78	-0.1	84
43	Oc1ccc(OCc2ccccc2)cc1	0.3[3.7 µM]	98	0.1	97
44	CC(=O)NCC1CN(c2ccc(N3CCOCC3)c(F)c2)C(=O)O1 (stereo unspecified)	-0.2	109	0.0	107
45	O=S(=O)(c1ccc(Cl)cc1)N1CCCC1c1cccs1 (stereo unspecified)	-0.2	111	0.0	107
46	COc1ccc(CNCc2cccc3ccccc23)cc1	-0.3[3.7 µM]	119	-0.5	107
47	CC(=O)SC1CC2=CC(=O)CC[C@]2(C)[C@@H]2CC[C@@]3(C)[C@H](CC[C@@]34CCC(=O)O4)[C@@H]12 (stereo partly specified)	-0.2	119	0.0	114
48	CCCCN1CCC(CCC(=O)c2cc(Cl)c(N)cc2OC)CC1	-0.1	104	-0.1	105

Next part.
no.	Molecule	p53 HeLa	p53 HeLa cells 24 h	p53 HeLa p53 24 h	p53 HeLa cells 48 h
49	Cc1cc(-c2ccc(CC(=O)Nc3ccc(-c4cccnc4)cc3)cc2)ccn1	-0.1[3.7 µM]	108	-0.2	110
50	COc1ccc2nc3n[nH]c(C)c3c(NCCOCCO)c2c1	0.0	99	0.0	103
51	NC(=O)c1cccnc1	0.0[3.7 µM]	107	-0.2	107
52	COc1ccc(CNc2nc(N3CCCC3CO)ncc2C(=O)NCc2ncccn2)cc1Cl (stereo unspecified)	-0.1[3.7 µM]	112	-0.2	104
53	OCCn1cc(-c2cnc3nnn(Cc4ccc5ncccc5c4)c3n2)cn1	0.3	97	0.4	102
54	O=C1NCc2c1c1c3ccccc3[nH]c1c1[nH]c3ccccc3c21	2.3	74	3.4	80
55	NC(=O)N1CCC(CC(=O)N2CCC(C3c4ncc(Br)cc4CCc4cc(Cl)cc(Br)c43)CC2)CC1 (stereo unspecified)	-0.1[3.7 µM]	92	-0.3	86
56	COc1c(O)cc2oc(-c3ccc(O)cc3)cc(=O)c2c1O	1.1	90	0.4	82

Following part:
no.	Molecule	p53 HeLa	p53 HeLa cells 24 h	p53 HeLa p53 24 h	p53 HeLa cells 48 h
57	CN(C)c1ccc(C2Nc3ccc4ccccc4c3C3=C2C(=O)CC(C)(C)C3)cc1Br (stereo unspecified)	-0.1	105	0.0	115
58	CCOC(=O)C1=C(N)Oc2ccc(Br)cc2[C@H]1C(C#N)C(=O)OCC (stereo partly specified)	-0.4[3.7 µM]	107	-0.3	110
59	CCOc1cc(N)c(Cl)cc1C(=O)NCC1CN(Cc2ccc(F)cc2)CCO1 (stereo unspecified)	-0.1[3.7 µM]	102	-0.5	103
60	COC1C(OC(=O)C=CC=CC=CC=CC(=O)O)CC[C@]2(CO2)C1[C@@]1(C)OC1CC=C(C)C (stereo partly specified)	0.1	111	0.3	113
61	COc1ccccc1Oc1ccc(N(Cc2cccnc2)S(=O)(=O)CC(F)(F)F)cc1	-0.2	114	-0.2	113
62	COc1cc(C2c3cc4c(cc3C(O)[C@H]3COC(=O)[C@@H]23)OCO4)cc(OC)c1OC (stereo partly specified)	4.6	39	1.6	22
63	CC1CN(c2c(F)c(N)c3c(=O)c(C(=O)O)cn(C4CC4)c3c2F)CC(C)N1 (stereo unspecified)	0.1[3.7 µM]	103	-0.2	100
64	CCN1CCCC1CNC(=O)c1cc(S(N)(=O)=O)ccc1OC (stereo unspecified)	-0.2[3.7 µM]	113	-0.6	110

Next part.
no.	Molecule	p53 HeLa	p53 HeLa cells 24 h	p53 HeLa p53 24 h	p53 HeLa cells 48 h
65	CCCCCCNC(=O)n1cc(F)c(=O)[nH]c1=O	-0.5[3.7 µM]	70	-0.3	58
66	CCCS(=O)(=O)Nc1ccc(F)c(C(=O)c2c[nH]c3ncc(-c4ccc(Cl)cc4)cc23)c1F	-0.1	108	0.0	112
67	O=C(O)c1cc(-c2ccccc2)nc2ccccc12	-0.1[3.7 µM]	111	-0.3	106
68	COC(=O)c1c(NC(=O)CC2SC(=N)NC2=O)sc(C)c1C (stereo unspecified)	-0.1	101	0.0	100
69	CNC(=O)c1cccc(Oc2ccc(NC(=O)Nc3ccc(Cl)c(C(F)(F)F)c3)cc2)c1	0.1	67	0.2	70
70	CNC(=O)c1ccc(Oc2ccc3c(c2)CCN(C2CCC2)CC3)nc1	0.1	106	0.0	107
71	Cn1cc(-c2ccncc2)c(-c2ccc(OCc3ccc4ccccc4n3)cc2)n1	-0.1	107	0.1	100
